# Bioassay records deposited in PubChem by ICCB-Longwood Screening Facility, Harvard Medical School.
# BasE inh = blocks the Acinetobacter baumannii siderophore enzyme BasE. purified BasE, fluorescence polarization binding displacement. inhibition, % (concentration not given with the values). actives 0.1% (n = 84,000);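 active = both replicates above 25% with normal brightness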;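 also: 0% = negative plate control signal and 100% = positive plate control signal; stock transfer was 100 nL into about 30 µL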
# LANA-nucl inh = LANA-nucleosome interaction inhibition | actives 0.3% (n = 51,000) | z-score (concentration not given with the values) | AID 720717 | FITC-LANA1-23 / chicken nucleosome fluorescence polarization; stronger effect = lower value;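 active = both repeat wells score below -2 in polarization z-score versus plate sample wells, excluding overly bright wells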;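 also: 100 nL library stock added to about 30 µL; numbers are from one replicate; some results filed as inactive read as strong as hits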
#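 Test system: purified chicken nucleosomes with FITC-labelled LANA N-terminal peptide (1-23); Input: 240 nM purified chicken nucleosomes (480 nM peptide binding sites), final; Medium: TEN-BT buffer, pH 7.5; Timing: 10–45 min, room temperature; Technique: fluorescence polarization, 480 nm excitation, 535 nm parallel and perpendicular emission; Replication: duplicates.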
# * = called active by the depositor; . = not tested or not shown; & = joins results of further samples. This is a subset; the hit share may differ from the screen's.
smiles | LANA-nucl inh | BasE inh
Clc1ccc(CSc2ncc(-c3ccc(Cl)cc3)[nH]2)cc1 | . | -1.1
O=C(OCc1ccc(C#Cc2ccccc2)s1)c1cccs1 | . | -2.0
O=C1S/C(=C\c2cn(Cc3ccccc3)c3ccccc23)C(=O)N1CN1CCCCC1 | . | 2.3
CCc1ccc(C(=O)Nc2nccs2)cc1 | . | 1.4
CCN(CC)NC(=S)Nc1ccccc1 | 2.4 | -3.4
Cc1cc(-n2cnc(-c3cn(C)nc3C)n2)no1 | -0.14 | 2.3
N#Cc1c(NC(=O)C2CC(=O)NN2Cc2ccccc2)sc2c1CCCC2 (stereo unspecified) | 0.2 | 1.1
C=CCNC(=O)C(C)N1CCN(C)CC1 (stereo unspecified) | -0.45 | 3.7
O=C(CSc1nncn1-c1ccccc1)N1CCCC1c1ccc2c(c1)OCCO2 (stereo unspecified) | . | 0.5
O=C(CN1CCN(c2ccccc2)CC1)N1c2ccccc2CCc2ccccc21 | . | 1.3
COCOc1ccc(C(=O)O)cc1OC | . | 2.8
C=CCn1c(COc2ccc(Cl)cc2)nnc1SCC(=O)N1CC(=O)Nc2ccccc21 | . | 0.8
CN=C1SC(CC(=O)Nc2cccc(C(=O)O)c2)C(=O)N1C (stereo unspecified) | . | 3.8
CC(=O)Nc1ccc(-n2ccnc2P(=O)(O)c2ccccc2)cc1 | . | 2.4
Cc1ccccc1N/C(=N\S(=O)(=O)c1ccccc1)c1ccccc1 | . | 0.4
Cc1c(Cl)cccc1N=C1NC(=O)/C(=C/c2ccco2)S1 | 0.42 | -0.6
CC1CCCCC1NC(=O)c1cc(=O)c2ccccc2o1 (stereo unspecified) | . | 3.7
N#CC(C#N)=Cc1cc2ccccc2nc1N1CCCCC1 | . | 1.9
O=c1[nH]c2c(s1)C1c3ccccc3OC3CCCC(S2)C31 (stereo unspecified) | -9.8* | 7.8
C/C(=C\C#N)CCc1ccccc1 | -0.68 | 1.0
O=C1CCC(C(=O)OCc2cccc3ccccc23)=NN1 | . | 0.7
Cn1/c(=N/S(C)(=O)=O)sc2ccccc21 | . | 1.1
O=C(CSc1nnc(Cc2cccs2)n1C1CC1)Nc1ccc(Cl)cc1F | . | -2.5
O=C(COc1ccc(S(=O)(=O)N2CCCc3ccccc32)cc1)Nc1ccc2c(c1)OCO2 | -0.69 | 2.4
COC(=O)c1ccc(COC(=O)c2ccc(CN3CCCC3=O)cc2)cc1 | . | 0.1

# An excerpt of these results, with two lines to a compound:
# The line under a structure holds: LANA-nucl inh | BasE inh
O=C1S/C(=C\c2cn(Cc3ccccc3)c3ccccc23)C(=O)N1CN1CCCCC1
  . | 2.3
CCc1ccc(C(=O)Nc2nccs2)cc1
  . | 1.4

# (list continues)
smiles | LANA-nucl inh | BasE inh
O=C(c1ccc2cn[nH]c2c1)N1CCN(c2ccccc2)CC1 | -0.46 | -2.1
CCCCN(C)C1=CC2=CC(=C(C#N)C#N)CCC2CC1 (stereo unspecified) | . | 17
Cc1sc(-n2c(C)cc(/C=C3\SC(=S)NC3=O)c2C)c(C#N)c1C | 2 | -20
Cc1cc(S(=O)(=O)NC2CCCCC2)ccc1OCC(=O)NCC1CCCO1 (stereo unspecified) | 0.54 | 0.6
Cc1ccc2c(Cl)c(C(N)=O)sc2c1 | -1.2 | 1.1
Cc1cc(-c2ccc(C(C)C)c(S(=O)(=O)NCc3ccc(F)cc3)c2)on1 | . | 1.2
c1ccc2c(CCNc3ncnc4nc[nH]c34)c[nH]c2c1 | 1.3 | -1.8
CCCNC(=O)c1cc2sc(C)cc2n1C | -0.0025 | -0.7
CC(C)(C)NC(=S)NCCc1ccccc1 | -0.26 | 3.4
N#CCCN1C(=O)c2ccccc2C1=O | -0.77 | 0.3
Cc1ccc(CC(C#N)Sc2nnc(C3CCCCC3)o2)cc1 (stereo unspecified) | . | 2.2
C=CCn1c(=N)n(CC(O)C(C)(C)C)c2ccccc21 (stereo unspecified) | -0.38 | 1.0
Cc1c(C(=O)OCC(=O)c2cccs2)oc2ccccc12 | . | -1.7
NC(=O)C1CCN(C(=S)Nc2ccc(Cl)cc2)CC1 | . | 2.4
O=C(NC(c1ccccc1)c1ccccc1)c1ccc(=O)[nH]c1 | . | -0.5
O=C1CCN(C(=O)c2ccc(COc3ccccc3)cc2)CC1 | . | -4.1
COc1cc(C(=O)ON=C2CCSCC2)cc(OC)c1OC | -1.6 | -0.2
CNC(=O)NC(=O)C(C)Sc1nc2sccc2c(=O)n1-c1ccccc1 (stereo unspecified) | . | 0.0
O=C(O)c1cc2n(n1)C(C(F)(F)F)CC(C1CC1)N2 (stereo unspecified) | 0.56 | -2.7
CC(C)(C)c1ccc(/C(N)=N/C(=O)N2CCOCC2)cc1 | -1 | 0.9
O=c1[nH]cnc2c(Cl)cc(Cl)cc12 | . | 0.9
CC(NC(=O)CN(C)Cc1cccs1)c1ccccc1 (stereo unspecified) | . | -1.0
O=C(Cn1ncc2ccsc2c1=O)N1CCN(Cc2ccccc2)CC1 | -0.3 | -0.5
COC(=O)C1=C(C)NC(=O)/C1=C/c1ccc(CNS(=O)(=O)c2ccc(Cl)cc2)o1 | . | 4.1
COc1ccc(S(=O)(=O)N2CC3(C)CC2CC(C)(C)C3)cc1 (stereo unspecified) | . | -3.4
Cc1cc2c(cc1S(=O)(=O)C(C)CC(=O)N1CCN(c3ccccc3F)CC1)OCC(=O)N2 (stereo unspecified) | -0.9 | -1.3
CCOc1ccc(NC(=O)CSc2nnc(C)n2CC2CCCO2)cc1 (stereo unspecified) | -0.32 | 1.5
CCOCc1cn(CC(=O)c2ccc(OC(C)=O)c(OC(C)=O)c2)c(C)nc1=N | 0.5 | 0.8
O=C(N1CCOCC1)n1ccnc1 | -1.5 | 0.3
O=C(OCC(=O)N(C1CCCCC1)C1CCS(=O)(=O)C1)C1CC1 (stereo unspecified) | . | -0.4
CCOC(Cn1c(Cc2ccccc2)nc2ccccc21)OCC | . | 1.3
COc1ccc(CCNC(=O)c2cn[nH]c2C2CCNCC2)cc1OC | . | -0.2
O=C(NCCCn1cccn1)C1CCC1 | -0.17 | 2.0
Cc1cc(=O)oc2cc(OCC(N)=O)c(Cl)cc12 | . | 2.1
CC(=O)OCc1ccccc1Sc1ccccc1C(=O)Nc1ccccc1 | . | -2.7
COc1ccc(NC(=O)c2ccccc2NS(C)(=O)=O)cc1Cl | 1.1 | -0.8
O=C(NC1CCCCC1)c1sc(=S)n2c1[nH]c(=O)c1ccccc12 | 0.44 | 2.0
CC(=O)NC1C(OCc2ccc(Cl)cc2Cl)OC(CO)C(O)C1O (stereo unspecified) | 0.45 | 1.5
CC(C)CC(=O)Nc1ccc(C(=O)NN)cc1 | . | -2.2
COC(=O)Cc1[nH]nc2c1C(c1c[nH]c3ccccc13)C(C#N)=C(N)O2 (stereo unspecified) | 0.45 | 1.1
N#Cc1ccc(OCOc2ccc(C#N)cc2)cc1 | . | 1.6
CC(=O)NC1=NN(C(C)=O)C(C)(CS(=O)(=O)c2ccc(C)cc2)S1 (stereo unspecified) | . | 3.2
CC(=O)Nc1cc(Cl)ccc1Cl | . | -2.8
COc1ccc(Cn2nnnc2C(c2ccccn2)N2CCc3ccccc3C2)cc1 (stereo unspecified) | 0.39 | -2.5
CN1CCN(NC(=O)c2ccc(-c3ccccc3)cc2)CC1 | . | -1.1
COC(=O)c1ccccc1NC(=O)CCCC(=O)O | . | -3.6
CN(C)C1(CNC(=O)NC(=O)c2ccccc2)CCCCC1 | . | 2.0
CCOc1ccc(C2=C(CN3CCOCC3)C(c3ccccc3)c3ccccc3O2)cc1 (stereo unspecified) | . | 2.6
O=S(=O)(C1=CC23CCCC2(C=C(S(=O)(=O)c2ccc(Cl)cc2)C3)C1)c1ccc(Cl)cc1 (stereo unspecified) | . | 2.4
Cc1ccc(Cn2c(C(=O)Nc3ccc(F)cc3C)cc3oc(C)cc32)cc1 | -0.14 | -1.6

# Retrieved by structure from the list above (three):
smiles | LANA-nucl inh | BasE inh
O=C(Cn1ncc2ccsc2c1=O)N1CCN(Cc2ccccc2)CC1 | -0.3 | -0.5
CC(=O)NC1C(OCc2ccc(Cl)cc2Cl)OC(CO)C(O)C1O (stereo unspecified) | 0.45 | 1.5
O=C(OCc1ccc(C#Cc2ccccc2)s1)c1cccs1 | . | -2.0

# Next part:
smiles | LANA-nucl inh | BasE inh
Oc1ccc(/C=N/N=C/c2ccc(O)cc2)cc1 | 0.45 | 25
CC1CCCC(C)N1NC(=O)C1CC(=O)N(c2ccc3c(c2)OCCO3)C1 (stereo unspecified) | . | -0.8
CCNCc1ccc(-c2ccccc2)o1 | -0.3 | -1.5
Cc1cnc(NCCc2ccccc2)s1 | 0.28 | -0.7
Cc1cc2ncc(-c3ccn(S(=O)(=O)c4ccc(Cl)cc4)c3)nc2cc1C | . | -0.3
Cc1csc(=O)n1CCC(=O)OCN1C(=O)c2ccccc2C1=O | . | 4.8
CN(C)c1cccc(C(=O)NCCc2c[nH]c3ccccc23)c1 | . | -1.0
CCc1onc(C)c1C(=O)O | -0.2 | -0.1
O=C(Nc1ccccc1Cl)c1cc(-c2cccs2)nc2ccccc12 | . | 2.4
Cc1ccc(C(=O)N2CC3(C)CC2CC(C)(C)C3)cc1 (stereo unspecified) | 0.25 | -0.1
c1ccc(C2C/C(=N\N3CCOCC3)c3ccccc3O2)cc1 (stereo unspecified) | . | 2.1
C/C=C/c1ccc(OC)cc1 | -0.46&0.31&-1.3 | -2.4
COC(=O)C1CCC(=O)C(C(=O)OC)C1 (stereo unspecified) | . | 1.4
Cc1cccc(N2NC(=O)/C(=C/c3ccc4c(c3)n(C)c(=O)n4C)C2=O)c1 | -0.18 | -0.5
CCN1/C(=C2/SC(=S)NC2=O)Sc2ccccc21 | . | 3.1
CC(C)C1=NN2C(=N)/C(=C/c3ccccc3)C(=O)N=C2S1 | . | -1.8
COc1cc(C=C2C(=O)NC(=S)NC2=O)ccc1OCC(=O)O | . | 1.6
CCOC(=O)c1cc2c(C(F)(F)F)cc(C(F)(F)F)nc2s1 | . | 2.0
CN1CCN(CP(=O)(N2CCCCC2)N2CCCCC2)CC1 | . | 0.0
CCNC(=O)CON=C1c2ccccc2-c2ccccc21 | . | 2.0
O=C1N(Cc2ccccc2)c2ccccc2C1(O)c1nnc(-c2ccccc2)o1 (stereo unspecified) | . | 1.0
COC(=O)c1scc(C)c1NC(=O)CC1NCCNC1=O (stereo unspecified) | 1 | -1.6
O=C1NC2(CCCC2)C(=O)N1CCC(=O)N(CC1CCCO1)c1nc2ccccc2s1 (stereo unspecified) | . | 0.7
CN(C)C(=O)NC1c2ccccc2-c2ccccc21 | 0.27 | 2.4
O=c1[nH]c2ccccc2c(O)c1Br | -0.065 | 4.3
CC1CCCCN1C(=O)COc1ccc(NC(=O)c2ccco2)cc1 (stereo unspecified) | . | 1.2
O=c1sc2c(s1)SCSCS2 | . | 1.1
CC12CCC(=O)N1C(C(=O)OCC(=O)Nc1cccc(Br)c1)CS2 (stereo unspecified) | . | 0.5
O=C1Cc2cc(S(=O)(=O)N3CCCC3c3ccc4c(c3)OCCO4)ccc2N1 (stereo unspecified) | . | -0.8
Cn1nc(C(=O)NCCNc2ncc(C(F)(F)F)cc2Cl)c2ccccc2c1=O | . | 0.5
CCOC(=O)C1CCN(C(c2cc3ccc(OC)cc3n3nnnc23)c2nnnn2C2CCCC2)CC1 (stereo unspecified) | -0.14 | 5.3
O=C(COC(=O)c1ccncc1)Nc1ccccc1 | . | 0.1
Cc1nnc2n(c1=O)N=C(c1ccccc1)CS2 | -1.2 | 2.2
CN(C(=O)Nc1ccccc1)n1cnc2ccsc2c1=O | 0.091 | -0.9
CCOC(=O)C1CCN(C/C=C/c2ccccc2)CC1 | -0.39 | 1.4
C=CCNc1nc(C(=O)OCC(=O)c2cc(C)n(Cc3ccc4c(c3)OCO4)c2C)cs1 | . | 1.3
CCn1c2c(c3cc(OCc4ccccc4)ccc31)CCCC2=O | . | 0.2
Cc1ccccc1-c1nc2cc(NCc3cccs3)ccc2o1 | 0.27 | 0.7
CCOC(=O)c1cc(-c2ccc(OC)c(S(=O)(=O)NC)c2)on1 | 0.84 | -2.6
Cc1cc(C)n2nc(-c3ccccc3)cc2n1 | 0.14 | 2.9
O=C(O)CCNc1nc(C(F)(F)F)nc2ccccc12 | 0.049 | 4.5
O=C(NCc1ccccc1)N1CCN(c2ccccc2)CC1 | 1 | -2.1
COc1cc2c(cc1OC)C1c3ccccc3NC(=O)CN1CC2 (stereo unspecified) | 0.67 | .
C=C1CC[C@H](O)C/C1=C/C=C1\CCC[C@]2(C)[C@@H]([C@H](C)CC[C@@H](O)C(C)(C)O)CC[C@@H]12 | 0.45 | -2.0
COCCNc1c(-c2ccc(N)cc2)nc2ccc(C)cn12 | -0.68 | -1.0
CC(C)(C)NC(=O)COc1ccc(CNc2ccc3c(c2)OCCO3)cc1 | -1.6 | 1.3
CCCc1nnc(SCC(=O)N2CCCc3ccccc32)n1CC | 1.3 | -5.5

# Complete entries from above. Screens in order: LANA-nucl inh | BasE inh
# CCn1c2c(c3cc(OCc4ccccc4)ccc31)CCCC2=O is listed with . | 0.2
# COc1cc2c(cc1OC)C1c3ccccc3NC(=O)CN1CC2 (stereo unspecified) is listed with 0.67 | .
# O=C1Cc2cc(S(=O)(=O)N3CCCC3c3ccc4c(c3)OCCO4)ccc2N1 (stereo unspecified) is listed with . | -0.8
